MARV entry inh: qHTS for Inhibitors of binding or entry into cells for Marburg Virus | Marburg virus pseudotype entry/binding inhibition, cell-based; control for the full effect not named in the record; many of its hits are not listed in these tables | Potency, µM (highest dose often 49.2 µM), for inactives: at the highest dose activity change, negative = inhibition, usual class: inhibitors | hit rate 6.5% among 18,000; active means well fitted inhibition curve with a large enough effect; inconclusive means small, poorly fitted or top-dose-only effect; inactive means no such curve, though single readings can be large or run the other way; tested in HEK293 cells; also: luciferase read-out
Lassa entry: qHTS for Inhibitors of binding or entry into cells for Lassa Virus. hit rate 4.1% among 18,000. Potency, µM (highest dose often 49.2 µM), inactives show top-dose activity change, negative = inhibition, usual class: inhibitors. Lassa virus pseudotyped entry inhibition, cell-based qHTS; control for the full effect not named in the record; many of its hits are not listed in these tables; active = well fitted inhibition curve with a large enough effect; inconclusive = small, poorly fitted or top-dose-only effect; inactive = no such curve, though single readings can be large or run the other way; tested in HEK293 cells; also: luciferase read-out
An asterisk follows results filed as active; ? = inconclusive; . = not tested or not shown; & = joins results of further samples; ! = repeats disagree; [ ] = dose if it differs, or a comment. % is scaled to controls: 0 for no effect and ±100 for the full control effect; potency is read from the fitted curve at half-maximal effect.

no.	SMILES	Lassa entry	MARV entry inh
1	CCCCCC(=O)N1C[C@H](O)[C@@H](n2cc(COC(=O)c3ccccc3)nn2)C[C@H]1c1ccc(OC)cc1	-29%	?
2	COCCN(C)C(=O)c1cnn(-c2ncc3c(n2)-c2ccccc2CC3)c1C	-6%	9%
3	Cc1cccc(CN2CCN(C3CN(C4CCCCC4)S(=O)(=O)C3)CC2)c1 (stereo unspecified)	-46%	?
4	COc1cc2oc(=O)cc(-c3cccc(-c4ccc(C(F)(F)F)cc4)c3)c2c(OC)c1OC	-5%	?
5	CCCCCCCCCCCCCCCCCCc1ccc(C(=O)/C=C\C(=O)O)cc1	1%	10%
6	Cn1cc(CN2CCC(C3(c4ccccn4)NC(=O)N(CC4CCCO4)C3=O)CC2)c2ccccc21 (stereo unspecified)	-19%	?
7	CC(C)CC1C(=O)N(Cc2cn(CCC3OCCCO3)nn2)CCS(=O)(=O)N1Cc1ccc(-c2cccc(N(C)C)c2)cc1 (stereo unspecified)	18%	31%
8	CCN1CCCC1CNCc1cc2ccc(SC)cc2nc1-c1cc(OC)ccc1OC (stereo unspecified)	-10%	-8%
9	COc1ccc(Nc2ncc(-c3ccccc3)o2)cc1OC	.	-31%
10	N[C@H](C(=O)N[C@@H]1C(=O)N2C(C(=O)O)=C(Cl)CS[C@@H]12)c1ccccc1	-7%&1%[17.8 µM]	8%&6%[17.8 µM]
11	CNCCc1ccc(O)c(O)c1	-13%	11%
12	CC1(OC(=O)c2cccs2)C(=O)C=C2C=C(C3CC3)OC=C2C1=O (stereo unspecified)	-5%&-4%	-2%&-7%
13	COC(=O)C1=C(C)NC(COC(N)=O)=C(C(=O)OC(C)C)C1c1cccc(Cl)c1Cl (stereo unspecified)	?	-24%
14	COc1ccc2c(c1)O[C@H](c1ccc3c(c1)OCO3)[C@@H](O)C2=O	-5%	1%
15	CCCCCCCCNS(=O)(=O)CCNCc1ccccc1OC	38%[activator]	1%
16	O=C(CN1C(=O)c2ccccc2C1=O)NCC1Cc2cccc(-c3ncccn3)c2O1 (stereo unspecified)	-4%	3%
17	COc1cccc([C@H]2Oc3ccc(OC)cc3C(=NO[C@@H](C)c3cn([C@H](CO)Cc4ccccc4)nn3)[C@H]2O)c1	11%[8.59 µM]	5%[8.59 µM]
18	NC[C@H](CS(=O)(=O)O)c1ccc(Cl)cc1	5%	3%
19	NCCC(=O)O	-3%&-12%	7%&10%
20	CN(Cc1ccccc1)Cc1ccccc1	-4%	2%
21	NC(Cc1cnc[nH]1)C(=O)Nc1ccc2ccccc2c1 (stereo unspecified)	2%	11%
22	C=CCN1c2ccccc2[C@]23CCC(=O)N(Cc4cc(OC)c(OC)c(OC)c4)C2=NC(C(=O)OC)=C(C(=O)OC)[C@H]13	-15%[8.59 µM]	-7%[8.59 µM]
23	CSCC[C@@H]1NC(=O)[C@@H](NC(=O)[C@H](CCCNC(=N)N)NC(=O)[C@H](CC(C)C)NC(=O)[C@H](CCSC)NC(=O)[C@H](CC(=O)O)NC(=O)[C@H](Cc2ccccc2)NC(=O)[C@@H](N)CC(=O)O)CSSC[C@@H](C(=O)N[C@@H](Cc2c[nH]c3ccccc23)C(=O)N[C@@H](CCC(N)=O)C(=O)N[C@H](C(=O)O)C(C)C)NC(=O)[C@@H]2CCCN2C(=O)[C@H](CCCNC(=N)N)NC(=O)[C@H](Cc2ccc(O)cc2)NC(=O)[C@H](C(C)C)NC(=O)[C@H](CCCNC(=N)N)NC(=O)CNC(=O)[C@H](CC(C)C)NC1=O	6%	7%
24	NC(=O)[C@H]1O[C@@H](O)[C@H](O)[C@@H](O)[C@@H]1O	-7%	12%

2 entries from above, with one line to a screen:
14: COc1ccc2c(c1)O[C@H](c1ccc3c(c1)OCO3)[C@@H](O)C2=O
15: CCCCCCCCNS(=O)(=O)CCNCc1ccccc1OC

Assay by compound,14,15
Lassa entry,-5%,38%[activator]
MARV entry inh,1%,1%

Next results:
no.	SMILES	Lassa entry	MARV entry inh
25	O=C(O)[C@@H]1CN[C@@H](C(=O)O)C1	5%	12%
26	CC(C)(C)OC(=O)N1CCCC(C(=O)Nc2cccc(C(=O)NCc3ccccc3)c2)C1 (stereo unspecified)	-15%	33%[activator]
27	CCC1CN(Cc2ccc(COC)o2)Cc2cc(OC)ccc2O1 (stereo unspecified)	2%	?
28	COC(=O)CCCC1=CC2=CC(=O)C(C)(OC(=O)c3cccs3)C(=O)C2=CO1 (stereo unspecified)	6%	12%
29	COc1c(O)cc(O)cc1O	-8%	3%
30	CC(=O)NCCc1c[nH]c2ccc(O)cc12	7%&1%	13%&16%
31	CC1=C(/C=C/C(C)=C/C=C/C(C)=C/C(=O)Nc2ccc(O)cc2)C(C)(C)CCC1	7.1µM*!	?
32	OC[C@@H](O)[C@@H](O)CCc1ccccc1	4%	-20%

Two compounds drawn at random from those above:
no.	SMILES	Lassa entry	MARV entry inh
30	CC(=O)NCCc1c[nH]c2ccc(O)cc12	7%&1%	13%&16%
32	OC[C@@H](O)[C@@H](O)CCc1ccccc1	4%	-20%

The list goes on:
no.	SMILES	Lassa entry	MARV entry inh
33	CC(C)=CCC/C(C)=C/CC/C(C)=C/CO	?	-6%&9%&-11%
34	Cc1cc(C(=O)NCc2nnc3n2CCN(Cc2ccc(C)c(C)c2)CC3)c(C)o1	-14%	-15%
35	C[C@@H]1C/C=C/C=C/C=C/C=C/[C@H](O[C@@H]2O[C@H](C)[C@@H](O)[C@H](N)[C@@H]2O)C[C@@H]2O[C@](O)(C[C@@H](O)C[C@H]3O[C@@H]3/C=C/C(=O)O1)C[C@H](O)[C@H]2C(=O)O	1%[17.8 µM]	-3%
36	Cc1nn(C)c2cc(N(C)c3ccnc(Nc4cccc(S(N)(=O)=O)c4)n3)ccc12	.	?
37	CCCNC(=O)OC[C@H]1O[C@H](CCON=CC[C@@H]2C=C[C@H](OC(C)=O)[C@@H](COC(C)=O)O2)C=C[C@H]1Oc1ccc(OC)cc1	.	6%[8.59 µM]
38	CCCCC1=CC2=C(c3ccco3)C(=O)C(C)(OC(=O)c3ccc(OC)cc3)C(=O)C2=CN1Cc1ccco1 (stereo unspecified)	2%[8.59 µM]	?
39	OC[C@@H]1O[C@@H](n2cnc3c(N[C@H]4CCC[C@@H]4O)ncnc32)[C@H](O)[C@H]1O	4%	2%
40	CC[N+](C)(CC)CCC[n+]1c(-c2ccccc2)c2cc(N)ccc2c2ccc(N)cc21	3.2µM*	2.8µM*
41	O=C1OC(c2ccc(O)cc2)(c2ccc(O)cc2)c2ccccc21	-16%&-22%	-1%&10%
42	O=C(CN1Cc2ccccc2OC(c2ccccc2F)C1)NC(c1ccccn1)C(F)(F)F (stereo unspecified)	?	?
43	CCOC(=O)C1(O)Oc2cc(OC)cc(OC)c2C(=O)C1c1ccccc1 (stereo unspecified)	-2%	5%
44	COCOc1c2c(c(OCOC)c3c(OCOC)cccc13)C(=NNS(=O)(=O)c1ccc(C)cc1)C1=C2CCCC1	-22%[8.59 µM]	?
45	COc1cccc(Cc2nc3cccnc3n2C2CCN(C(=O)c3n[nH]c4c3CCCC4)CC2)c1	18%	?
46	C[C@H]1[C@@H](c2ccccc2)Oc2c(Cl)cccc2S(=O)(=O)N1Cc1ccc(F)cc1F	9%	?
47	COC(=O)/C=C/c1cc(O)ccc1O	-27%	-12%
48	N[C@H](C(=O)O)[C@H]1C[C@@H]1C(=O)O	-8%	3%
49	CC1CN(CCC(=O)NC(c2cccnc2)C(F)(F)F)Cc2cc(Cl)ccc2O1 (stereo unspecified)	-17%	?
50	CN(C)Cc1ccccc1-c1cncnc1NCc1ccccc1	-5%	-25%
51	COc1ccccc1CNc1ncnc2ccc(-c3c(C)noc3C)cc12	-9%	9%
52	COC1=CC(=O)C(O)=C/C1=C\C=C\c1ccccc1	-25%	16µM*
53	CC1(C)CC[C@]2(C(=O)O)CC[C@]3(C)C(=CCC4[C@@]5(C)CC[C@H](O)C(C)(C)C5[C@H](O)C[C@]43C)C2C1 (stereo partly specified)	32µM*	1%
54	COc1cccc(CNC(=O)c2c(OC)cc(=O)n3c2CCN(C(=O)C2CC=CCC2)CC3)c1 (stereo unspecified)	-3%	2%
55	CC(C)=CCCC(C)=CCN1C(=O)[C@@]2(CC(C)=CC[C@@H](C)O2)c2c(Br)cccc21	-19%[8.59 µM]	0%[8.59 µM]
56	COP(=S)(OC)SCN1C(=O)c2ccccc2C1=O	19%	8%
57	CC[C@H]1C(c2cccc(Cl)c2)=NN(c2ccccc2)[C@@H]1CO	-29%	-8%
58	CC[C@H](C)[C@H](NC(=O)[C@H](C)NC(=O)CNC(=O)[C@H](CCCN=C(N)N)NC(=O)[C@H](C)NC(=O)[C@H](CC(C)C)NC(=O)[C@H](CCC(=O)O)NC(=O)[C@H](CC(C)C)NC(=O)[C@H](C)NC(=O)[C@@H](N)CCC(=O)O)C(=O)N[C@@H](Cc1ccccc1)C(=O)N[C@@H](CCC(N)=O)C(=O)N[C@@H](C)C(=O)O	12%	1%
59	COC(=O)c1c(C)c2c(c(C)c1O)OC(=O)c1c(C)c(Cl)c(O)c(Cl)c1O2	7%&15%	-8%&9%
60	COc1cccc(C(=O)CCN[C@@H](C)[C@H](O)c2ccccc2)c1	-1%	-6%
61	COc1cc2c(cc1OC)[C@@H]1C(=O)c3ccc(OC)c(CC=C(C)C)c3OC1CO2 (stereo partly specified)	?	?
62	Cc1cc(C(C)(C)CC(C)(C)C)ccc1OCCOCC[N+](C)(C)Cc1ccccc1	?	11µM*
63	O=C(C=Cc1ccccc1)Nc1cccc(C(=O)NCCCc2ccccc2)c1	49%[activator]	30%
64	COc1ccc([C@]23Cc4cc(C#N)ccc4[C@H](O2)C2=C(CC4(CCCCC4)OC2=O)O3)cc1	-23%[8.59 µM]	1%[8.59 µM]

Entries of single compounds as entered above. Order of values: Lassa entry	MARV entry inh
Cc1cc(C(C)(C)CC(C)(C)C)ccc1OCCOCC[N+](C)(C)Cc1ccccc1 in the list: ?	11µM*
COC(=O)c1c(C)c2c(c(C)c1O)OC(=O)c1c(C)c(Cl)c(O)c(Cl)c1O2 in the list: 7%&15%	-8%&9%
O=C(C=Cc1ccccc1)Nc1cccc(C(=O)NCCCc2ccccc2)c1 in the list: 49%[activator]	30%
COc1cccc(C(=O)CCN[C@@H](C)[C@H](O)c2ccccc2)c1 in the list: -1%	-6%
CC[C@H](C)[C@H](NC(=O)[C@H](C)NC(=O)CNC(=O)[C@H](CCCN=C(N)N)NC(=O)[C@H](C)NC(=O)[C@H](CC(C)C)NC(=O)[C@H](CCC(=O)O)NC(=O)[C@H](CC(C)C)NC(=O)[C@H](C)NC(=O)[C@@H](N)CCC(=O)O)C(=O)N[C@@H](Cc1ccccc1)C(=O)N[C@@H](CCC(N)=O)C(=O)N[C@@H](C)C(=O)O in the list: 12%	1%

Later entries:
no.	SMILES	Lassa entry	MARV entry inh
65	C[C@H]1C=CCC(=O)N[C@@H](c2ccc3ccccc3c2)[C@@H](C)C=CCC(=O)N[C@@H]1c1ccc2ccccc2c1	-1%[8.59 µM]	20%[8.59 µM]
66	O=C(O)c1ccccc1Nc1cccc(C(F)(F)F)c1	?	?
67	CCCCCCCCCCCCOS(=O)(=O)O	0%	14%
68	O=C(OCC(F)(F)F)[C@H](O)[C@@H](O)C(=O)OCC(F)(F)F	7%	-9%
69	Cc1nc(-c2coc3c(O)c(O)ccc3c2=O)cs1	24%	7%
70	Cc1cc2c(c(=O)n1Cc1ccccc1)[C@H]1O[C@](c3ccsc3)(Cc3ccccc31)O2	5%[8.59 µM]	-12%[8.59 µM]
71	CN1CCC(N2CCN(C3CN(C4CCCC4)S(=O)(=O)C3)CC2)CC1 (stereo unspecified)	?	-16%
72	CC1OC(n2cc(F)c(=O)[nH]c2=O)C(O)C1O (stereo unspecified)	?	?
73	O=S1(=O)N[C@H](Cc2ccccc2)COc2cc(Br)ccc21	.	20%
74	O=C(Nc1ccc(Cl)cc1)OC[C@@H]1CSCCS(=O)(=O)N1	42%[activator]	33%[activator]
75	CC(N)Cc1c[nH]c2ccc(OCc3cccs3)cc12 (stereo unspecified)	-18%	?
76	COCCN1C(=O)C2=C(C1=O)C1N(C)c3ccccc3[C@@]13C[C@@H](CO)N=C3N2 (stereo partly specified)	18%[8.59 µM]	25%[8.59 µM]
77	COC(=O)c1c(OCc2cccnc2)cc(=O)n2c1CCN(C(=O)c1c3c(nn1C)CCCC3)CC2	0%	6%
78	C[C@H](N)Cc1c[nH]c2ccc(OCc3cccs3)cc12	-21%	?
79	CCCCN1CC(N2CCN(CCN(C)C)CC2)CS1(=O)=O (stereo unspecified)	8%	17%
80	COC(=O)CC[C@H](N)C(=O)O	-1%	6%
81	COCCCNc1ncnc2sc(C(=O)N3CCCCC3)c(C)c12	-12%	-19%
82	CN(C)C(=O)c1ccc(-c2cncnc2NCCN2CCOCC2)cc1	5%	-14%
83	O=S(=O)(O)c1ccc(O)cc1	0%	14%
84	O=C1c2ccccc2-n2c1nc1ccccc1c2=O	?	?
85	COC(=O)C1(C(=O)OC)C[C@H]2CON=C2[C@H]1c1ccccc1	-9%&1%	14%&-6%
86	O=c1cc(-c2ccccc2Cl)oc2c([N+](=O)[O-])c(O)cc(O)c12	0%	7%
87	C=C(C)C(O)C=CC=Cc1ccccc1 (stereo unspecified)	46%[activator][8.59 µM]	?
88	CC(=O)OCC(=O)[C@@]1(O)CCC2C3CCC4=CC(=O)CC[C@]4(C)C3C(O)C[C@]21C (stereo partly specified)	-9%	11%
89	COC[C@H](c1ccc(C(F)(F)F)cc1)N1CCN(C2(C)CCN(C(=O)c3c(C)ncnc3C)CC2)C[C@H]1C	-21%	-15%
90	COC1=C[C@H](C(=O)NCc2ccccc2)[C@H](C)[C@@H](c2ccccc2)CC1=O	21%[8.59 µM]	-1%[8.59 µM]
91	CCC1CN(Cc2c(C)nc3sccn23)Cc2cc(OC)ccc2O1 (stereo unspecified)	1%	?
